# Compound activity deposited in PubChem BioAssay by several laboratories.
# Mtb bLac sens: beta-lactam sensitization of Mtb H37Rv, H37Rv. M. tuberculosis H37Rv growth with meropenem, percent inhibition; hits of this screen are not shown here. inhibition, % at 25 µM. actives 0.27% (n = 330,000);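 active = about 74% or more and at least 40 points above the plate without the antibiotic, then above 30% in a dose series; inconclusive = first-round hits that could not be retested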;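 also: growth measured after seven days incubation then overnight dye step; 0% = bacteria only wells and 100% = bacteria with antibiotic; twin plates without the antibiotic show which effects depend on it; some results filed as inactive read as strong as hits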
# Mtb H37Rv: M. tuberculosis H37Rv growth inhibitors, H37Rv strain (AID 1626) | M. tuberculosis H37Rv growth inhibition; higher % means a stronger effect | inhibition, % at 10 µM; hits with a dose series show IC50 in µM | actives 0.95% (n = 220,000);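 active = confirmed in a dose series; inconclusive = inhibition above 80% but not taken into the dose series; inactive = below 80% or under 30% at every dose of the series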;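 also: bacteria incubated seven days before Alamar blue readout; 0% = bacteria only wells and 100% = bacteria with antibiotic wells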
# RecA splice inh: Mtb RecA intein splicing inhibitors, primary screen, biochemical, fluorescence, HTS. Protein RecA (Mycobacterium tuberculosis (strain ATCC 25618 / H37Rv)), P9WHJ3. cell-free RecA intein splicing. inhibition, %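 (about 9 µM by stock and volumes)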. actives 0.75% (n = 290,000). AID 2221, 2009; in the data active = inhibition above about 30%; inconclusive = no clear call, values can overlap the other calls;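 also: 0% = vehicle wells and 100% = reference inhibitor control wells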
# Target sequence (P9WHJ3 whole entry, looked up, canonical isoform): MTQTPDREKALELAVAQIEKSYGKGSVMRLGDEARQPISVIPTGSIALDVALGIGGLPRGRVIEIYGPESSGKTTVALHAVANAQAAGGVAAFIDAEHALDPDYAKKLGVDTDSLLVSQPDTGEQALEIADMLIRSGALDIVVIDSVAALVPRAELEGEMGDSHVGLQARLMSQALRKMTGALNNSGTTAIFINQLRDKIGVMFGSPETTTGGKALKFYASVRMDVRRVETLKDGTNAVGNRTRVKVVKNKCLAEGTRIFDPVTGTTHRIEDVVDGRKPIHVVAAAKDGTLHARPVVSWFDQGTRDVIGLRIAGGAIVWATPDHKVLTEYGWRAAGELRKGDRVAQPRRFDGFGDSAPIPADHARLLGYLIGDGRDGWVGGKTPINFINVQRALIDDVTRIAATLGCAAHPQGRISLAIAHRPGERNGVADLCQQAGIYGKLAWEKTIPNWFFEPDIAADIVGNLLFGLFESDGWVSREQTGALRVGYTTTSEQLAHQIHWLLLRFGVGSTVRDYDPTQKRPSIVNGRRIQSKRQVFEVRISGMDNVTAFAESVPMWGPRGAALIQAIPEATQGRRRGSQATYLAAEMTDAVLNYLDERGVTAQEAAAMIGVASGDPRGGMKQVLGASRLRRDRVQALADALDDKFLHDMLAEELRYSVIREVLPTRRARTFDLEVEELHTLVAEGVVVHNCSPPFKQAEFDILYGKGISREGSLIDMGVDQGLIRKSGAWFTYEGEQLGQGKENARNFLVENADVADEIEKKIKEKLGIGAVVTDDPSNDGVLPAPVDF
# Arbovirus anti: antivirals against arbovirus infection, primary screen, cell-based, full library, 10K replicate subset; arbovirus infection cell-based antiviral screen; inhibition, % at 10 µM; actives 0.37% (n = 200,000); AID 1251, 2008;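 active = inhibition from about 30%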;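 also: bluetongue infection of BSR cells; cell survival read as ATP light after 72 h; 0% = infected wells without compound and 100% = uninfected wells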
# YopH PTP inh: YopH tyrosine phosphatase inhibitors, primary screen, biochemical, fluorescence Ex485/Em525; YopH tyrosine phosphatase [Yersinia enterocolitica]; inhibition, %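 (about 10 µM by stock and volumes)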; actives 0.16% (n = 140,000);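 active = inhibition of 50% or more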;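 also: controls were vehicle for no effect and minimum signal wells for full effect; inactives centre near -20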
# Arbovirus anti repeat: further read-out of Arbovirus anti, marked with its call; inhibition, %; measured here: 10K subset replicate screen; many hits read low in the repeat;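 first of two repeat runs on a subset; 0% = infected and 100% = uninfected wells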
# The depositor's hits bear a star; ? = inconclusive; / = not tested or not shown. Only part of the results is shown; the hit share may differ from the screen's.
SMILES,Mtb bLac sens,Mtb H37Rv,RecA splice inh,Arbovirus anti,YopH PTP inh,others
CCn1c(Cc2ccc(OC)cc2)nnc1SCC(=O)Nc1ccc(N2CCOCC2)cc1,-1.9,/,-4.1,/,/,
Cc1ccc(S(=O)(=O)CCC(=O)Nc2nc(C(C)(C)C)cs2)cc1,3.9,/,4.1,/,/,
CN1N=C(C(F)(F)F)CC1=O,0.3,-0.8%,-10.2,15.1,/,
CCOC(=O)/C(C#N)=C/c1c(N2CCN(c3ccccc3)CC2)nc2ccccn2c1=O,-5.3,/,2.9,/,/,
c1csc(-c2ccnc3ncnn23)c1,-4.5,-18.4%,-1.0,2.2,-15.5,
COc1ccc(CCNC(=O)CSc2nnc3ccc(-c4cccnc4)nn23)cc1,1.4,-2.0%,-1.0,-1.6,/,
CC1CN(Cc2nc3c(c(=O)n(C)c(=O)n3C)n2CC(O)CO)CC(C)O1 (stereo unspecified),-1.9,-7.5%,0.8,6.0,-31.1,
CC(C)c1ccc(NC(=O)C2CCN(c3ncnc4c3nc3n4CCCCC3)CC2)cc1,-2.3,/,1.8,/,/,
O=C(Cc1ccc(Cl)cc1)NCC(=O)N1CCN(c2ccccc2)CC1,-9.8,/,-4.1,/,/,
CCOc1ccc(CNC(=O)CCc2cn(Cc3ccccc3)c3ccccc23)cc1,-5.0,/,0.7,-11.2,-24.9,
CCN(CC)S(=O)(=O)c1ccc2[nH]c(=O)cc(C(=O)Nc3ccc(C)cc3)c2c1,-1.9,0.6%,0.1,-1.9,/,
C=CCn1c(SCC(=O)N2CCCC2)nc2c([nH]c3ccccc32)c1=O,3.8,/,0.7,/,/,
Cc1ccc(C2CC2C(=O)NNC(=S)Nc2cccc(C)c2)cc1 (stereo unspecified),-1.5,-7.1%,5.5,-8.5,-35.2,
O=C1CCCCCN1CSc1nc2ccccc2s1,43.3,-8.2%,-0.9,6.2,-64.9,
Cn1nnnc1SCc1nnc(-c2ccc(Cl)cc2)o1,-12.2,-7.2%,/,-3.1,-35.9,
CC(C)(C)OC(=O)N[C@@H](Cc1ccccc1)c1nnc(SCC(N)=O)o1,-12.1,-7.6%,-0.5,/,/,
CCCn1c(CC)nc([N+](=O)[O-])c1Sc1ccc(C)cc1,-9.7,1.4%,6.3,-2.9,-19.3,
CCOC(=O)C1CCCN(S(=O)(=O)c2cc(OCC(N)=O)c(C)cc2Cl)C1 (stereo unspecified),-6.4,3.8%,-4.1,1.9,-29.1,
O=C(/C=C/c1ccc(-c2cccc([N+](=O)[O-])c2)o1)N1CCOCC1,3.1,4.5%,2.2,/,/,
COc1ccccc1Nc1nc(N)nc(CCl)n1,97.3,9.0%,7.1,/,/,
COc1cc(C(C)=O)ccc1COc1ccc(C(=O)OCC(=O)NC(C)(C)C)cc1OC,23.1,8.1%,2.5,-3.8,-15.7,
CCC(=O)Nc1nnc(S(=O)(=O)N(C)c2ccccc2)s1,5.7,/,-1.8,/,/,
O=C(Nc1ccc(S(=O)(=O)N2CCOCC2)cc1)c1cc(-c2cc(Cl)ccc2O)n[nH]1,-4.7,31.1%,11.7,/,/,
Cn1nc(C(=O)N2CCN(c3ccc([N+](=O)[O-])cc3)CC2)c2c1-c1ccccc1S(=O)(=O)C2,-6.4,/,-0.7,/,/,
CCOC(=O)c1sc2nc(CN3CCN(c4cccc(C(F)(F)F)c4)CC3)[nH]c(=O)c2c1C,-2.9,3.7%,1.3,8.6,-8.9,
O=C(OCc1cnc(Cl)s1)c1cccs1,5.0,11.5%,0.2,-0.5,/,
O=C(Nc1ccc2ccccc2c1)c1ccc(Cl)cc1Cl,31.3,-8.7%,0.7,/,/,
Cc1ccc(C)c(NC(=O)CSc2nncn2C)c1,-1.6,/,-2.1,/,/,
O=[N+]([O-])c1ccc(-c2ccc(S(=O)(=O)N3CCOCC3)cc2)cc1,-0.1,/,1.2,/,/,
CCCCCOCC1CC(C/C(C)=N/NC(N)=O)(C(=O)OCC)C(=O)O1 (stereo unspecified),-11.8,-6.8%,-1.0,/,/,
O=C(COc1ccccc1)Nc1ncn[nH]1,-0.3,-0.2%,0.5,/,/,
O=C(NC1CCCC1)C(c1ccc(N2CCOCC2)cc1)N(Cc1ccccc1)C(=O)c1ccco1 (stereo unspecified),-6.9,-11.4%,-2.2,1.8,-37.9,
COc1cc(=O)oc(-c2ccccc2)c1C(C)=O,-1.8,/,6.6,/,/,
COc1ccc(CNC(=O)COC(=O)/C=C/c2ccc(Cl)cc2)cc1,-3.5,2.0%,2.8,6.1,/,
O=C(CN1C(=O)c2ccccc2S1(=O)=O)c1cccc(Br)c1,4.1,/,0.4,/,/,
Cn1cccc1/C=N/NC(=O)Cc1cccc2ccccc12,1.9,10.9%,-0.2,0.4,/,
Cc1cccc(-n2c(SCC(=O)NCc3ccco3)nc3ccccc3c2=O)c1,-4.8,-11.2%,11.1,3.4,-36.6,
Cc1[nH]c2ccccc2c1/C=N/Nc1ccc([N+](=O)[O-])cc1S(=O)(=O)Nc1ccc(Cl)cc1,-5.1,9.3%,-2.2,-8.5,6.2,
O=C(CC1C(=O)NCCN1Cc1ccccc1C(F)(F)F)NCCn1cccn1 (stereo unspecified),0.6,2.3%,6.6,3.0,/,
CCOC(=O)Cc1csc(-n2sc3ccccc3c2=O)n1,5.6,1.5%,-0.1,-43.0,-12.8,
O=C(CN1CCN(c2ccccc2O)CC1)Nc1cc([N+](=O)[O-])ccc1Cl,-7.6,3.3%,0.5,5.0,/,
CCN(CC(=O)Nc1ccc(OC)c(OC)c1)S(=O)(=O)c1ccc(C)cc1,-6.3,10.1%,8.5,2.1,5.2,
Cc1[nH]c(C)c(S(=O)(=O)NCc2ccc(N(C)C)cc2)c1C(=O)N1CCCC1,1.4,/,-5.0,/,/,
Cc1ccc(NC(=O)CN(C)C(=O)c2cc(-c3ccco3)nc3ccccc23)cc1,-8.1,/,0.7,/,/,
COc1ccc(/C=C2\SC(=O)N(CC(=O)NC3C=CS(=O)(=O)C3)C2=O)cc1 (stereo unspecified),1.3,/,-0.3,/,/,
C/C(=N\NC(=O)c1nnn(-c2nonc2N)c1-c1ccc2c(c1)OCO2)c1ccc(C)cc1,6.2,/,2.0,/,/,
Cn1c(=O)oc2cc(S(=O)(=O)Nc3ccc(Cl)cc3F)ccc21,-4.3,-3.8%,-1.6,13.2,-33.6,Arbovirus anti repeat=2.3
CC(=O)N(C)c1cccc(-c2ccc3nnc(C)n3n2)c1,7.2,/,0.4,/,/,
COc1ccc(N(CC(=O)NN=C2CCCCCCC2)S(=O)(=O)c2ccccc2)cc1Cl,73.0,-2.5%,-1.9,4.9,-15.8,
CCOc1ccc2[nH]c(=O)c(CN(CCN3CCCC3)C(=S)Nc3ccccc3OC)cc2c1,0.4,3.0%,-0.5,7.8,/,
Cc1[nH]n(-c2nc(-c3cccc([N+](=O)[O-])c3)cs2)c(=O)c1C,?,8.6%,-2.4,2.6,-23.7,
COC(=O)c1sc(N)c(C(=O)OC)c1COC(=O)[C@@H](NS(=O)(=O)c1cccc(Cl)c1)C(C)C,-0.3,10.2%,9.1,-10.3,-29.5,
COc1cccc(C(=O)NCCCNC(=O)c2ccco2)c1,5.6,/,2.4,/,/,
O=C1c2ccccc2C(=O)N1CCc1nc2ccccc2c(=O)n1Cc1ccco1,-12.6,-11.7%,-1.8,3.4,-0.3,Arbovirus anti repeat=4.3
Cc1ccc(Cn2nc(C)c(NC(=O)C3CC3)c2C)cc1,-9.1,-17.5%,1.5,-2.6,-8.2,
COc1ccc(C(=O)C[n+]2ccccc2/C=N/O)cc1,1.0,2.3%,-41.2,-4.8,-5.9,
CCOC(=O)C1CCCN(S(=O)(=O)c2ccc(C)cc2)C1 (stereo unspecified),-0.8,-9.7%,-0.3,2.1,8.1,
CCN(CC)c1ccc(/C=c2\sc3nnc(-c4ccccc4Cl)n3c2=O)cc1,4.3,-0.6%,-0.7,7.5,-2.7,
Cn1c2ccc(F)cc2c2ncn(CCCN(CCO)CCO)c(=O)c21,-1.7,-0.7%,0.6,-0.4,-24.6,
C(=Nc1ccc(N2CCOCC2)cc1)c1c[nH]c2ccccc12,4.3,-0.1%,-4.7,/,/,

# Among those listed so far, these have an NH in an aromatic ring:
SMILES,Mtb bLac sens,Mtb H37Rv,RecA splice inh,Arbovirus anti,YopH PTP inh,others
CCN(CC)S(=O)(=O)c1ccc2[nH]c(=O)cc(C(=O)Nc3ccc(C)cc3)c2c1,-1.9,0.6%,0.1,-1.9,/,
C=CCn1c(SCC(=O)N2CCCC2)nc2c([nH]c3ccccc32)c1=O,3.8,/,0.7,/,/,
O=C(Nc1ccc(S(=O)(=O)N2CCOCC2)cc1)c1cc(-c2cc(Cl)ccc2O)n[nH]1,-4.7,31.1%,11.7,/,/,
CCOC(=O)c1sc2nc(CN3CCN(c4cccc(C(F)(F)F)c4)CC3)[nH]c(=O)c2c1C,-2.9,3.7%,1.3,8.6,-8.9,
O=C(COc1ccccc1)Nc1ncn[nH]1,-0.3,-0.2%,0.5,/,/,
Cc1[nH]c2ccccc2c1/C=N/Nc1ccc([N+](=O)[O-])cc1S(=O)(=O)Nc1ccc(Cl)cc1,-5.1,9.3%,-2.2,-8.5,6.2,
Cc1[nH]c(C)c(S(=O)(=O)NCc2ccc(N(C)C)cc2)c1C(=O)N1CCCC1,1.4,/,-5.0,/,/,
CCOc1ccc2[nH]c(=O)c(CN(CCN3CCCC3)C(=S)Nc3ccccc3OC)cc2c1,0.4,3.0%,-0.5,7.8,/,
Cc1[nH]n(-c2nc(-c3cccc([N+](=O)[O-])c3)cs2)c(=O)c1C,?,8.6%,-2.4,2.6,-23.7,
C(=Nc1ccc(N2CCOCC2)cc1)c1c[nH]c2ccccc12,4.3,-0.1%,-4.7,/,/,

# Returning to the listing; the three compounds before the break are reprinted first.
SMILES,Mtb bLac sens,Mtb H37Rv,RecA splice inh,Arbovirus anti,YopH PTP inh,others
CCN(CC)c1ccc(/C=c2\sc3nnc(-c4ccccc4Cl)n3c2=O)cc1,4.3,-0.6%,-0.7,7.5,-2.7,
Cn1c2ccc(F)cc2c2ncn(CCCN(CCO)CCO)c(=O)c21,-1.7,-0.7%,0.6,-0.4,-24.6,
C(=Nc1ccc(N2CCOCC2)cc1)c1c[nH]c2ccccc12,4.3,-0.1%,-4.7,/,/,
CCc1ccccc1N1C(=O)C2C3CC(=O)C(c4ccccc43)C2C1=O (stereo unspecified),52.5,4.1%,3.1,-0.7,/,
CCOc1ccccc1NC(=O)c1cc(S(=O)(=O)N2CCC3(CC2)OCCO3)ccc1F,3.2,-6.0%,3.6,8.5,-57.2,
O=C(Cc1cccc2ccccc12)N/N=C/c1ccc(F)cc1,3.0,-6.1%,/,6.6,-3.8,
O=c1[nH]c(SCc2ccccc2Cl)nc2[nH]ncc12,9.7,0.2%,0.9,-15.3,/,
CCc1nc2ccccc2n1CC(=O)OCC(=O)N(CC(C)C)c1c(N)n(Cc2ccccc2)c(=O)[nH]c1=O,-10.3,/,-0.7,/,/,
Cc1ccc(C)c(C(=O)Nc2nc3ccccc3[nH]2)c1,6.1,/,-0.2,/,/,
Cc1oc2c(C)c3oc(=O)c(CCC(=O)O)c(C)c3cc2c1-c1ccccc1,-3.7,/,-1.3,/,/,
COCCn1c(SCC(=O)Nc2ccccc2F)nc2c(c1=O)SCC2,-7.0,/,-0.2,/,/,
COc1cc(OC)c(OC)cc1CN1CCN(C(=O)Cc2ccccc2)CC1,-3.2,/,-2.5,/,/,
O=C(Oc1cccc(C(=S)N2CCOCC2)c1)c1ccccc1,1.9,/,0.6,/,/,
O=C(NCC1CCCO1)c1cc(Br)c(Br)s1 (stereo unspecified),1.3,/,-3.2,/,/,
Cn1c(C(=O)N2CCN(C(=O)c3ccco3)CC2)cc2c(=O)n(C)c3ccccc3c21,-1.0,-5.0%,0.8,-0.1,-33.5,Arbovirus anti repeat=2.5
Cc1cc(-c2csc(NC(=O)c3ccc(C#N)cc3)n2)c(C)n1Cc1ccco1,-1.7,4.0%,4.5,0.9,-12.0,
Cc1ccsc1C1Nc2ccccc2C(=O)N1O (stereo unspecified),-1.7,0.4%,10.6,-6.0,-20.8,
Cc1cc(C)c([C@@H]2C[C@H]3CN(C4CCCC4)C(=O)[C@]34CCCN24)c(-n2cccn2)c1,-6.1,-6.0%,-0.2,/,/,
O=C(Nc1ccc(S(=O)(=O)Nc2ccccn2)cc1)c1cccc(Cl)c1,-0.6,/,5.0,/,/,
